hNpr1 antagonist – blocks ANP-stimulated signaling of human Npr1 receptor | P16066 | HEK293 hNpr1 GloSensor cGMP, ANP-stimulated luminescence | Potency, µM (top dose mostly 46.3 µM), inactives show at the highest dose activity change, negative = inhibition, hits mostly inhibitors | hit rate 1.6% among 76,000; active = well fitted inhibition curve with a large enough effect; inconclusive = small, poorly fitted or top-dose-only effect; inactive = no such curve, though single readings can be large or run the other way;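 further: nearly all actives have a fitted effect of over 60% in size; nearly all hits also lower the signal before the agonist is added; a reference antagonist and vehicle were the controls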
Target sequence (P16066 whole entry, looked up): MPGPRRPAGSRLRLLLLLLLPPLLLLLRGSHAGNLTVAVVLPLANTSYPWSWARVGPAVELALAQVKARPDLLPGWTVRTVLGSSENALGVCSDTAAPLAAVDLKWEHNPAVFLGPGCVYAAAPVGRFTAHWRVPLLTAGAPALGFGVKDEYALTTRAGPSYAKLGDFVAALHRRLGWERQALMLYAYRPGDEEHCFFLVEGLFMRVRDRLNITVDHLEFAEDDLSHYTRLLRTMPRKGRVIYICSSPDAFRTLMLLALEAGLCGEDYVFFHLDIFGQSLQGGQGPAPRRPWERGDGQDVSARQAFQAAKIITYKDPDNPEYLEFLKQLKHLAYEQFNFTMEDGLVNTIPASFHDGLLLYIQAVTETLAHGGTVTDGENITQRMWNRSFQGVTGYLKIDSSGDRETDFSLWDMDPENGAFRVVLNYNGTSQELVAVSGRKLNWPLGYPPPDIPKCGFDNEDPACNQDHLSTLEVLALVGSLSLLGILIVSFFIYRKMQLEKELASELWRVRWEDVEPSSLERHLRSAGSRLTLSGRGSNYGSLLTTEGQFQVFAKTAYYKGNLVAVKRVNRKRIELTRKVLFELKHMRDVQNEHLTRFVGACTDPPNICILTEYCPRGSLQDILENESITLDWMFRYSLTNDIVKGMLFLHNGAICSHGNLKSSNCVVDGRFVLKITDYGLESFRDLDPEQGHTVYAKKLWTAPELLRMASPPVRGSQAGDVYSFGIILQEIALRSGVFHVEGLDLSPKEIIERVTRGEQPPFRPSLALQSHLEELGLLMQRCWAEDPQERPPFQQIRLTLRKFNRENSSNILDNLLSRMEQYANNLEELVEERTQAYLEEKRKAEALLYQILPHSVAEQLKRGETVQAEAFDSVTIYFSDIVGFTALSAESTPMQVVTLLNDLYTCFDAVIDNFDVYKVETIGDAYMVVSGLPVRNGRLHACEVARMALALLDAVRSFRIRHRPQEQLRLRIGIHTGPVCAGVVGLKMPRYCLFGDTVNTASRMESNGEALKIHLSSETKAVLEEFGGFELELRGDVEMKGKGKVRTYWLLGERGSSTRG
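Compound pre-incubated 30 min at room temperature on GloSensor-loaded HEK293 cells stably carrying hNpr1 and the pGS-40F cGMP biosensor. Stimulation uses hNppA at 0.1 nM final; luminescence is taken at baseline and 20 min post-agonist.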
An asterisk follows results filed as active; ? = inconclusive; [ ] = remark or other dose. On the % scale 0 is the no-effect control and ±100 the full control effect; potency means the concentration at half of the fitted maximal effect. Only part of the results is shown (hit frequency here may not be typical).

| Structure | hNpr1 antagonist |
| --- | --- |
| COc1ccc(-c2cc3nc4c(c(=O)n3[nH]2)CN(S(=O)(=O)c2cccs2)CC4)cc1 | 2.3% |
| CCc1cccc(NC(=O)Cn2c(-c3ccccc3)nc(C)c(CCO)c2=O)c1 | -14.3% |
| CC(C)C[C@@H]1N[C@H](C(=O)NCc2ccc(F)cc2)Cc2c[nH]c3cccc1c23 | -15.7%[70.6 µM] |
| COC[C@@H]1CN(Cc2ccccc2OC(C)C)C[C@H]1C(N)=O | 4.9% |
| CCc1cccc2c(C(CC(=O)NCc3ccc4c(c3)OCO4)c3ccc(OC)c(OC)c3)c[nH]c12 (stereo not drawn) | -21.4% |
| Cn1nc(C2CCN(C(=O)c3ccncc3)CC2)c2c1CCOC2 | 1.5% |
| CCCc1cc(CN(C)C(=O)c2ccc3c(c2)[nH]c(=O)n3C2CCC(O)CC2)[nH]n1 (stereo not drawn) | -4.7% |
| COc1ccc(CNC(=O)N2C[C@@H](C)[C@](O)(C(C)C)C2)cc1 | 3.6% |
| Cc1ccc(N2CC(c3noc(-c4cc5ccccc5[nH]4)n3)CC2=O)cc1 (stereo not drawn) | 4.5% |
| O=C1CC(c2ccccc2)N(Cc2ccncc2)CCCN(C(=O)c2cccs2)CCN1 (stereo not drawn) | 5.6% |
| COc1ccc(-c2cc(C[C@H]3CNCC[C@H]3CC(=O)NC(C)(C)C)no2)cc1 | 2.9%[70.6 µM] |
| COc1ccc(-c2nc(C)nc3c2CCN([S+](=O)([O-])c2cccc(C(F)(F)F)c2)CC3)cc1 | -0.7% |

New compounds follow.
| Structure | hNpr1 antagonist |
| --- | --- |
| CCCC1c2nccn2CCCN1C(=O)c1cc(C)no1 (stereo not drawn) | -0.1% |
| NC(=O)[C@@H]1CN(C(=O)c2cccc(F)c2)C[C@H]1COc1ccccc1 | 2.5% |
| O=C(c1c[nH]c2ccccc12)N1CCN(c2cc(-c3cccs3)[nH]n2)CC1 | -22.3% |
| FC(F)(F)c1ccc(-c2noc([C@@H]3Cc4nc[nH]c4CN3CC3CCCCC3)n2)cc1 | -17.3%[70.6 µM] |
| CN(Cc1ccccc1)Cc1cc(CC2(NCc3ccc(CO)o3)COC2)no1 | -0.4%[70.6 µM] |
| Cc1ccc([C@H]2CN(C(=O)c3[nH]nc(N)c3-c3ccccc3)C[C@@H]2N)o1 | -1.5% |
| O=C(O)Cn1ccc2cc(OCCc3cccc(-c4ccccc4)c3)cnc21 | -15.3%[70.6 µM] |
| C[S+](=O)([O-])c1cccc(NC(=O)Cc2c[nH]c3ncc(-c4cccnc4)cc23)c1 | 8.6%[70.6 µM] |
| Cc1nc(-c2ccccc2OC2CN(C(=O)c3ccoc3)C2)no1 | 7.1% |
| Cc1noc2c(NCc3cccnc3)cc(-c3ccc(F)cc3)nc12 | 4.9%[70.6 µM] |
| COC(=O)[C@@H](C)NC(=O)[C@@H]1CN(C(=O)c2cccc(F)c2)CCN1C(=O)NC(C)C | -2.3%[70.6 µM] |
| c1ccc(N2CCN(Cc3cc(CC4(NCc5ccncc5)COC4)no3)CC2)cc1 | -2.7%[70.6 µM] |

(list continues)
| Structure | hNpr1 antagonist |
| --- | --- |
| Cc1cc(=O)n(CC(=O)Nc2ccc(C)c(C)c2)c(N(C)Cc2ccccc2)n1 | ? |
| C[C@@H](NC(=O)c1ccccn1)c1onc(-c2ccc(F)cc2)c1C(=O)O | 7.0%[70.6 µM] |
| CC(C)(C)C(=O)NCC1CCN(Cc2nc(-c3ccccc3)no2)C1 (stereo not drawn) | -0.4% |
| CCn1cc(CNC(=O)c2ccc(OC3CCN(S(=O)(=O)N(C)C)CC3)cc2)cn1 | 12.6µM* |
| CCC(=O)Nc1ccc(OCC(=O)N(CC)CC2CCOCC2)cc1 | 5.1% |
| CN(Cc1cn(C)nc1-c1ccc(C2CCCCC2)cc1)C1CCOC1 (stereo not drawn) | 2.0% |
| CCO[C@H]1CN(C(=O)c2ccc(-n3ccnc3)cc2)C[C@@H]1O | -1.2% |
| COc1cccc(-c2[nH]cnc2-c2ccccc2)c1OCCCN(C)C | -4.6% |
| CN(Cc1cccc(C(F)(F)F)c1)[S+](=O)([O-])c1cccc(C(F)(F)F)c1 | 9.7% |
| O=C(O)C[C@@H]1CCN(C(=O)Nc2ccc(F)cc2)C[C@@H]1CCN1CCCCC1 | 0.9%[70.6 µM] |
| COc1ccccc1CNC(=O)C1(c2ccc(NC(=O)C3CC3)cc2)CCCCC1 | 3.9% |
| COCCn1cc2c3c(cccc31)CN(C(=O)c1c(F)cccc1Cl)CC2 | -1.8% |

Next part:
| Structure | hNpr1 antagonist |
| --- | --- |
| COc1ccc(CC(=O)N2CCC(c3n[nH]c(=O)n3-c3ccccc3)CC2)cc1 | 0.6% |
| CCN(CC)C(=O)CC1COc2ccc(C(=O)NCCOC)cc2N1C (stereo not drawn) | 1.8% |
| O=C(NCCN1CCOCC1)c1ccc2nc(-c3ccccc3)cn2c1 | 4.0% |
| Cc1ccccc1C(=O)NC1CCN(c2cc(-c3ccc(F)cc3)[nH]n2)C1 (stereo not drawn) | -1.7% |
| CCn1cnnc1-c1nn(C)c2c1CN(C(=O)Cc1ccc(NC(C)=O)cc1)CC2 | 4.0% |
| Cn1c(=O)n([C@H]2CCCN(C(=O)c3cnccn3)C2)c2ncccc21 | -8.2% |
| O=C(c1cccc(Cl)c1)N1CCN(C2CCN(Cc3ccccn3)C2=O)CC1 (stereo not drawn) | 6.7% |
| O=C(Cn1cccc1-c1nc(-c2ccc3c(c2)OCO3)no1)NCCc1ccc(Cl)cc1 | 1.8% |
| OCC1CN(C2CCC2)CC12CCN(Cc1ccsc1)CC2 (stereo not drawn) | 1.8% |
| COc1ccc(CC(=O)NC[C@@H]2C=C(C)[C@H](Cc3nc4ccncc4[nH]3)C[C@H]2C(C)C)cc1 | -2.5% |
| O=C(Nc1cnc(-c2ccc(Cl)cc2)nc1)C1CCC1 | 5.62µM* |
| O=C(Nc1cc(F)cc(F)c1)N1CCCC1c1nncn1C1CCCC1 (stereo not drawn) | -0.6% |

Next structures
| Structure | hNpr1 antagonist |
| --- | --- |
| CCn1c(=O)c2ccnn2c2ccc(C(=O)NCCc3cccnc3)cc21 | 6.4% |
| O=C1CC(c2noc(-c3nccc4ccccc34)n2)CN1C1CCCCC1 (stereo not drawn) | -5.2% |
| CCc1cc(N2CCC3(CC2)CC(c2ccccc2)C(=O)N3C)nc(C)n1 (stereo not drawn) | -7.2% |
| Cc1cccnc1NCCNc1nc(C(C)C)nc2c1cnn2C | -2.8% |
| Cc1nc2c(c(-c3ccc(O)cc3)n1)CN(C(=O)C1CCCC1)CC2 | 7.3% |
| O=C(Nc1ccccc1)N[C@H]1[C@H](O)[C@@H](Sc2ccccc2)[C@@H]2OC[C@H]1O2 | -15.6%[70.6 µM] |
| COCCNC(=O)C1COC2(CCN(C(=O)c3cccc(OC)c3)CC2)N1C(=O)c1ccc(F)cc1 (stereo not drawn) | 8.3% |
| c1coc(-c2ccnc(N[C@H]3CO[C@H]4[C@@H]3OC[C@@H]4NCC3CCCCC3)n2)c1 | ? |
| Cc1c(C(C)NC(=O)CO)cnn1-c1cccc2ccccc12 (stereo not drawn) | -0.5% |
| CC1=C[C@@H](CNC(=O)CC2(CC(=O)O)CCCC2)[C@H](C(C)C)C[C@H]1Cc1nc2ccc(C)cc2[nH]1 | -9.8% |
| COc1cccc(CN2CCCC(c3nc(-c4cccnc4)no3)CCNC(=O)CC2)c1 (stereo not drawn) | 2.0% |
| Cc1cccc(-c2nc3cnccn3c2NCCC(=O)N2CCCCCC2)c1 | 6.0% |

Structural class: the compounds so far containing a tert-butyl group (2)
| Structure | hNpr1 antagonist |
| --- | --- |
| COc1ccc(-c2cc(C[C@H]3CNCC[C@H]3CC(=O)NC(C)(C)C)no2)cc1 | 2.9%[70.6 µM] |
| CC(C)(C)C(=O)NCC1CCN(Cc2nc(-c3ccccc3)no2)C1 (stereo not drawn) | -0.4% |

Following part.
| Structure | hNpr1 antagonist |
| --- | --- |
| Cc1oc(-c2cccc(Oc3ccccc3)c2)nc1CN1CC[C@H](N(C)C)C1 | 10.6% |
| O=C(NCCNc1cccnc1)C1CCC(=O)N(Cc2ccc(Cl)cc2)C1 (stereo not drawn) | -1.2% |
| O=C1CCN(C(=O)C2CC=CC2)CCCC(c2nc(-c3cccnc3)no2)CCN1 (stereo not drawn) | 3.8% |
| CCOc1cc(=O)n2c(c1C(=O)Nc1cccc(Br)c1)CCCC2 | 1.7% |
| Cc1ccc(CNC(=O)N2CCCN(S(C)(=O)=O)C(c3ccccc3)CC(=O)NCC2)cc1 (stereo not drawn) | -9.9% |
| CC(=O)c1ccc(NC(=O)N2CCc3c(nc(-c4ccc(F)cc4)[nH]c3=O)C2)cc1 | -1.5% |
| Cc1cc(C2CCCN2C(=O)c2ccc(-c3ccccc3Cl)o2)no1 (stereo not drawn) | 4.0% |
| CC(C)C(=O)NCCC1CCN(C(=O)Nc2ccccc2F)CC1 | 0.8% |
| COCC1CN(C(C)=O)CC12CCN(C(=O)c1n[nH]c(=O)c3ccccc13)CC2 (stereo not drawn) | -2.6% |
| CN(C)C[C@@H]1CN(Cc2ccccc2)C[C@H]1NC(=O)CCn1cccn1 | -1.7% |
| C=CCO[C@@H]1C[C@H]2C(=O)N3CC[C@H](NC(=O)[C@@H](O)c4ccccc4)C[C@H]3C(=O)N2C1 | 2.5%[70.6 µM] |
| CC(C)(C)CC(=O)N1CCC(N2C(=O)C(O)C23CCCCC3)CC1 (stereo not drawn) | 6.3% |

(continued)
| Structure | hNpr1 antagonist |
| --- | --- |
| CN(C)c1ncnc2sc3c(c12)CCN(Cc1ccc2cc[nH]c2c1)C3 | -11.2% |
| CN(CCc1ccccc1)C(=O)c1cc2c(s1)CCN(C(=O)c1ccc(Cl)cc1)C2 | -21.6% |
| O=C(NC1CCN(c2cc(-c3cccs3)[nH]n2)C1)c1cc(F)ccc1Cl (stereo not drawn) | -15.6% |
| O=C(N[C@@H]1[C@@H](Cc2ccccc2)[C@H]2OCC[C@@H]12)N1CCOCC1 | 17.3% |
| O=C(c1ccc2c(c1)OCO2)N1CCCC2(C1)Nc1cccnc1NC2=NC1CCCC1 (stereo not drawn) | -1.2% |
| O=C(NCc1nnc2cc(-c3nc(C4CC4)no3)ccn12)c1ccncc1 | 0.8% |
| COc1ccc(C[C@H](NC(=O)[C@@]2(O)C[C@@H](O)[C@H](O)[C@@H](NC(=O)CC(C)(C)C)C2)C(N)=O)cc1 | 0.4% |
| COc1ccccc1CC(=O)Nc1ccc2ncnc(N3CCCC3)c2c1 | -2.7% |
| O=C1Nc2ccccc2CC12CCN2Cc1ccc(F)cc1 (stereo not drawn) | 0.0%[70.6 µM] |
| CN(C1CCc2nn(C)c(=O)n2CC1)S(=O)(=O)c1cccc(C#N)c1 (stereo not drawn) | 10.3% |
| CCn1ccc(C(=O)Nc2ccc3ncnc(N4CCCC4)c3c2)n1 | -4.1% |
| O=C(NCc1nnc2ccc(-c3ccc(F)cc3)nn12)c1cc(Cl)ccc1F | 14.0% |

Next structures follow:
| Structure | hNpr1 antagonist |
| --- | --- |
| COc1ccc(NC(=O)Cc2c[nH]c3ncc(-c4ccccc4)cc23)cc1 | -25.7%[70.6 µM] |
| CCCc1noc(-c2ccn3c(CNC(=O)Cc4ccc(Cl)cc4)nnc3c2)n1 | 3.8% |
| COc1cccc(CNC(=O)[C@H]2CCC[C@H]2NC(=O)c2ccncc2)c1OC | -6.6% |
| O=C(CN1C(=O)NC(c2ccc(Cl)cc2)C2=C1COC2=O)Nc1ccc2c(c1)OCCO2 (stereo not drawn) | -19.2% |
| O=C(O)C[C@@H]1CCN(C(=O)COc2ccccc2)C[C@@H]1CCN1CCN(c2ccccn2)CC1 | 9.8% |
| CCN(CC)Cc1cnc2c(C(=O)N(C)CCc3ccccn3)cnn2c1 | -3.0% |
| Cc1noc([C@@H]2CN(C(=O)c3ccc4ccccc4n3)C[C@H]2CO)n1 | 5.2% |
| CCCn1c(C)cnc1CC1CCN(C(=O)c2c(C)noc2C)CC1 | 0.9% |
| Cn1nc(C(=O)N2CCc3nn(CC#N)c(=O)n3CC2)c2ccccc21 | 1.5% |
| O=C(c1cnccn1)N1CCC(N2C(=O)C(O)C23CCCCC3)CC1 (stereo not drawn) | 6.8% |
| Cn1nccc1C(=O)N1CCC(c2cc(-c3ccccc3)n[nH]2)CC1 | -20.5% |
| Cn1cc(-c2cccc(CCOc3cnc4c(ccn4CC(=O)O)c3)c2)cn1 | 3.0%[70.6 µM] |

Other records
| Structure | hNpr1 antagonist |
| --- | --- |
| Cc1ncc(CC(=O)N2CCC3(CC2)CC(C(=O)O)N(C)C3)c(=O)[nH]1 (stereo not drawn) | -0.9% |
| O=C(O)c1cccc([S+](=O)([O-])N2CC(CNC(=O)c3ccccc3)C3(CN(c4ccccc4)C3)C2)c1 (stereo not drawn) | -0.5% |
| CCc1n[nH]c(CC2CCN(C(=O)COc3ccc(C)cc3)CC2)n1 | -2.5% |
| O=C1Nc2ccccc2CC12CCN2[S+](=O)([O-])c1cccc(C(F)(F)F)c1 (stereo not drawn) | -1.8% |
| O=C(O)[C@@H]1CN(C(=O)CCc2cccc(Cl)c2)C[C@H]1c1cccc(F)c1 | 0.4% |
| COc1ccc(C(=O)N2CCC3(CC2)CC(C(C)C)=NO3)cc1 | -6.9%[70.6 µM] |
| CCOc1ccccc1NC(=O)N1CCCCCCNC(=O)CC1c1ccccc1 (stereo not drawn) | -19.1% |
| O=C1N(c2ccc(F)cc2)CCOC12CCN(Cc1ccc3[nH]ccc3c1)CC2 | -1.0%[70.6 µM] |
| O=C(CCC1CCCN(Cc2nc3c(s2)CCCC3)C1)Nc1ccccc1F (stereo not drawn) | -9.4% |
| Cc1ccsc1C(=O)N(C)CC1(C)CCOCC1 | 3.2% |
| Cc1sc2ccn(Cc3ccc(F)cc3)c(=O)c2c1C(=O)NC(C)C | -1.6% |
| COc1cccc([S+](=O)([O-])N2CCC3(CC2)CC(=O)c2ccc(Cl)cc2O3)c1 | -18.2% |
| Cc1ccc2c(C(=O)NC3CC3)cnn2c1 | -22.2%[70.6 µM] |

From PubChem BioAssay
